CtBP-E1A inh: blocks the CtBP interaction with E1A; AlphaScreen GST-E1A/His-CtBP binding, 1536-well; active compounds read low; control for the full effect not named in the record; activity change, % (concentration not given with the values); 340,000 compounds, 0.49% hits; in the data active means activity change below about -65%; inconclusive means about -30% to -65%; inactive means above about -30%; also: % is scaled to controls: 0 for no effect and ±100 for the full control effect
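Steps: dispense buffer (Tris pH 8.0, NaCl 300 mM, TCEP 1 mM, BSA, Tween 20); add 5X protein mix (GST-E1A, His-CtBP, 125 nM each); pin 23 nL compound; 2 h at 37 °C, dark; add 5X beads (50 ug/mL); 1 h; read.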
D2 potentiator: potentiates the human D2 dopamine receptor allosterically; potentiation, % (test concentration not listed); 360,000 compounds, 0.23% hits; P14416; DiscoveRx D2 beta-arrestin cells, luminescence, 90 min; 100% = 57 uM dopamine signal; active = potentiation of 50% or more; inconclusive = 30% to 50%; inactive = 30% or less;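 also: compound concentration not given in the record; tested on top of an EC20 dose of dopamine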
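D2 cells co-treated with compound plus 50 nM dopamine (EC20) for 90 min at 37 deg C to detect potentiation. Beta-arrestin recruitment was read as enzyme-fragment luminescence after 1 h at ambient temperature. Full response was set by 57 uM dopamine.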
PINK1 expr mod: modulators of PINK1 expression. 410,000 compounds, 0.2% hits. PINK1 immunofluorescence, high-content cytometry, 24 h. AID 624263. Potency, µM (series often up to 76.6 µM), inactives show at the highest dose activation (PINK1 increase), hits mostly activators; active = well fitted activation curve with a large enough effect; inconclusive = small, poorly fitted or top-dose-only effect; inactive = flat fitted curve, though single readings scatter; cell line not stated here;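 also: potency is read from the fitted curve at half-maximal effect; % of control where 0% means no effect; nearly all actives have a fitted effect of over 65% in size; a mitochondrial uncoupler was the plate control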
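Stable cell line, 250 cells/well, 12 h attachment; compounds pinned at 5 concentrations, 24 h; CCCP control. Fixed with nuclear dye, primary antibodies 12 h at 10 degrees C, secondary plus cell stain; laser-scanning cytometer read.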
TRPML1 ag: agonists of human TRPML1 channel | 410,000 compounds, 0.12% hits | activation, % (concentration not given with the values) | Q9GZU1 | TRPML1-expressing cells, Ca2+ dye fluorescence, FDSS; host cell line not named in the record; reference of the full effect not given here; in the data active = activation above about 50%; inconclusive = about 30% to 50%; inactive = below about 30%; also: 0% is about no effect; the text of the record puts the active cut at 80%
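Agonist activity was taken from a 110 s kinetic Ca2+ dye read on the FDSS after pinning compounds onto TRPML1-DL cells. The cells were seeded at 1,500/well with Tet inducer, incubated about 16 h, then dye-loaded at room temperature.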
Six1-Eya2 inh: inhibitors of human Six1/Eya2 interaction; Q15475+O00167; AlphaScreen GST-Six1/His-Eya2 binding, biochemical; active compounds read low; control for the full effect not named in the record; activity change, % (test concentration not listed); 360,000 compounds, 0.56% hits; in the data active = activity change below about -65%; inconclusive = about -30% to -65%; inactive = above about -30%; also: % is scaled to controls: 0 for no effect and ±100 for the full control effect
Target sequence (O00167 whole entry, looked up): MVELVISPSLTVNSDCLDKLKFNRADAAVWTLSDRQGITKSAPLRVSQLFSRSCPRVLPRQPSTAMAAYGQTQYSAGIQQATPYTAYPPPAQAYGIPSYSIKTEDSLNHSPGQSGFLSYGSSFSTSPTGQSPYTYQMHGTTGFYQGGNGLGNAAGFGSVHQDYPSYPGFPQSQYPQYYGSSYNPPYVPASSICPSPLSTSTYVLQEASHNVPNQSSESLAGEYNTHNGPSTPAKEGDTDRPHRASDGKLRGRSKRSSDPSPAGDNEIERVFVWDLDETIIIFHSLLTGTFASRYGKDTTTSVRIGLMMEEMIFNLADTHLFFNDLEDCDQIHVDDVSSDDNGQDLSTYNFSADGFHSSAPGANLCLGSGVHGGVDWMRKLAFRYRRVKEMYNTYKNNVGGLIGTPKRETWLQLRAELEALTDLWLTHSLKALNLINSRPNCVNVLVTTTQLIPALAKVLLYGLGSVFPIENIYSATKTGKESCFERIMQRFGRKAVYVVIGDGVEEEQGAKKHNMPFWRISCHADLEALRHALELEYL
Target sequence (Q15475 whole entry, looked up): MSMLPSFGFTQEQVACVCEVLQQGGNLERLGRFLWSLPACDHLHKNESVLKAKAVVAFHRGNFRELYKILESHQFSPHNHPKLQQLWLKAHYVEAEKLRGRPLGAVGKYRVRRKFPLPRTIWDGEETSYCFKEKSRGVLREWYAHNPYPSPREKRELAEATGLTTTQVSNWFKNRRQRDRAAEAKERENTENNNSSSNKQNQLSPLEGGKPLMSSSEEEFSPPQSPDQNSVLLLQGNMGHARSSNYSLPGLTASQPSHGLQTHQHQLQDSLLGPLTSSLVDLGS
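Six1/Eya2 binding was read as AlphaScreen signal after compounds were pinned into GST-Six1 plus His-tagged Eya2 (5X stock 250/500 nM) in pH 8.0 Tris/NaCl/TCEP buffer, beads added, then incubated 1 h, 37 C, dark.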
D2 agonist: activates the human D2 dopamine receptor; DiscoveRx PathHunter D2 beta-arrestin, luminescence, 90 min; 100% = 57 uM dopamine signal; activation, % (test concentration not listed); 360,000 compounds, 0.084% hits; in the data active = activation above about 40%; inconclusive = about 15% to 40%; inactive = below about 15%; also: compound concentration not given in the record; the text of the record calls up to 30% inactive
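DiscoveRx PathHunter D2 beta-arrestin cells (2,100/well) attached overnight, then compound-stimulated 90 min at 37 C in HBSS/10 mM HEPES/0.1% Tween-20 buffer; beta-galactosidase complementation read by luminescence after 1 h at ambient temperature. Dopamine 57 uM final (EC100) as control.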
* marks the source's active call; other numbers are inactive results; ? = inconclusive; · = no result given; [ ] = dose if it differs, or a comment.

SMILES,CtBP-E1A inh,D2 potentiator,PINK1 expr mod,TRPML1 ag,Six1-Eya2 inh,D2 agonist
COC(=O)c1sc(N/N=C/c2ccc(C(C)C)cc2)nc1C,6,4,-0.1%,0.0,26,2.2
Cc1cccc(NC(=O)Cn2c(O)c(N=NC(N)=S)c3ccccc32)c1,-13,-4,5.5%,0.8,-1,-0.2
CCOc1ccc(CCNC(=O)C(C)n2nc(C)c3c(C)n(-c4ccccc4)nc3c2=O)cc1 (stereo unspecified),1,-15,0.2%,-1.6,0,-5.9
Cc1nc(=S)c2ccccc2[nH]1,3,4,-2.8%,-0.9,-5,-5.5
CCCc1nc2c(s1)CCc1onc(-c3cccc([N+](=O)[O-])c3)c1-2,-7,-6,3.4%,1.2,-11,-1.7
COc1ccc(S(=O)(=O)N2CCCCC2)cc1NC(=O)C1CC1(Cl)Cl (stereo unspecified),0,-7,3.1%,-1.0,-9,-2.0
O=C1N[C@@H](Cc2ccccc2)COC(=O)[C@H](Cc2ccc(F)cc2)C/C=C\C[C@@H]1CC(=O)N(CCO)Cc1ccccc1,-2,-17,0.9%,0.3,-5,-4.9
COc1cc(CNC2CCC(C)C2)cc(OC)c1 (stereo unspecified),4,-7,1.8%[38.3 µM],1.9,3,-3.8
CCS(=O)(=O)N1CCC(NC(=O)c2cc(OC)cc(OC)c2)CC1,11,-13,·,0.8,6,2.7
Cc1ccc(S(=O)(=O)NC2=NCN(C(C)C)CN2)cc1,-3,4,0.3%,0.7,3,-0.6
CCCCOc1cccc(NC(=O)CSc2nncn2C)c1,-7,3,-1.0%,0.9,5,-0.3
CC1(C)Cc2c(cnn2-c2ccc(F)cc2)C(NC(=O)C2CCC2)C1 (stereo unspecified),9,-23,5.1%,0.7,0,-4.1
COc1ccc(C2=NN(C(=O)c3cccs3)C(c3ccccc3O)C2)cc1 (stereo unspecified),·,-14,2.1%,2.6,0,-4.8
NS(=O)(=O)c1ccc(NC(=O)COC(=O)CCc2ccc(S(=O)(=O)N3CCOCC3)cc2)cc1,·,-12,-1.4%,-0.3,9,-2.2
COC(=O)c1cc(OC)c(OCc2cc(C(=O)OC)oc2C)c(OC)c1,4,2,4.9%,3.1,2,-1.2
Cc1nn2c3ccccc3n(CCN3CCCCC3)c2nc1=O,0,-27,-1.1%,0.5,0,-3.1
COc1ccccc1-c1cc(NC(C)=O)c2ncc(-c3cccc(C(F)(F)F)c3)n2c1,-16,1,-0.2%,-0.9,-11,-1.3
O=C1N=c2ccccc2=C1c1sc(NS(=O)(=O)Cc2ccccc2)nc1O,·,4,0.7%,3.3,-2,-1.0
CC1CN(CN2C(=O)c3ccccc3C2=O)CC(C)O1 (stereo unspecified),5,-7,-3.3%[38.3 µM],0.0,3,-1.5
O=C(COC(=O)c1ccc(O)cc1)Nc1ncc(Cl)cc1Cl,1,-3,0.6%,-0.4,-8,2.4
O=C(/C=C/c1ccc(Cl)cc1Cl)Nc1cccc(S(=O)(=O)NC2=NCCC2)c1,·,-11,3.2%,0.5,-17,4.0
COC(=O)c1cc(COC(=O)CNC(=O)c2ccc(Br)cc2)oc1C,0,-5,-0.4%,-0.3,5,-5.9
NS(=O)(=O)c1ccc(CCNC(=O)CC(c2ccccc2)c2ccccc2)cc1,-2,-4,1.0%,0.0,-14,2.5
Cn1c(=O)c2c(nc(NCCCN3CCOCC3)n2Cc2ccc(Cl)cc2)n(C)c1=O,0,-1,1.1%,-1.0,-2,-3.9
CCc1nnc(SCC(=O)Nc2ccc(N3CCOCC3)cc2)n1C,13,-18,-1.0%,0.4,21,-6.4
Cc1c(CC(=O)NCCCC(=O)O)c(=O)oc2cc3c(cc12)CCC(C)(C)O3,4,1,2.9%,-0.2,-1,-0.1
c1ccc(-c2nnc3sc(-c4csc5c4CCCC5)nn23)cc1,-17,-13,13%,0.3,-29,-6.4
Cc1ccc(S(=O)(=O)N(C)c2ccc(OCC(=O)NCC3(N(C)C)CCCCC3)cc2)cc1,3,-44,2.7%,-1.3,-3,-5.8
Cc1nc(N)sc1C(=O)N1N=N1,-2,-1,-1.5%,0.6,-2,-4.7
O=C(CN1CCOCC1)NCc1ccccc1,8,-10,1.2%[38.3 µM],1.1,4,-2.7
O=C(CSc1cccc(C(F)(F)F)c1)NC(=O)NCc1ccco1,5,-14,·,2.1,-12,1.4
Cc1cccc(N2CC(C(=O)Nc3nccs3)CC2=O)c1C (stereo unspecified),2,2,1.4%,0.0,-3,-1.9
COc1cc2c(cc1NC(=O)CCC(=O)O)oc1ccccc12,3,-2,-0.2%,-0.7,3,9.3
c1cnc2ccc(C(c3nnnn3C3CCCC3)N3CCSCC3)cc2c1 (stereo unspecified),-1,18,2.5%,-0.9,-1,-4.9
O=c1[nH]c(/C=C/c2ccccc2F)nc2ccccc12,·,-6,9.0%,-0.4,3,-4.1
CC(C)N1CCN(c2ccc(OC[C@H]3CO[C@](Cn4cncn4)(c4ccc(Cl)cc4Cl)O3)cc2)CC1,-9,-16,6.1%,1.1,-24,-8.5
CC(=O)Oc1ccc(/C=N/NC(=O)c2ccc(N(C)S(=O)(=O)c3ccccc3)cc2)cc1,?,1,1.0%,1.1,?,-1.3
CN(C(=O)COC(=O)c1cc(S(=O)(=O)N2CCOCC2)ccc1F)C1CCS(=O)(=O)C1 (stereo unspecified),13,21,?,0.5,1,-6.2
O=C(COC(=O)Cn1nnc2ccccc21)Nc1ccccc1Br,6,-5,-2.6%,-0.2,-3,-3.0
O=C(C1=NNC2C(=O)N(c3ccccc3)C(=O)C12)c1nc(Cl)ccc1Cl (stereo unspecified),-16,-7,-1.5%,0.6,6,-8.2
Cc1ccc(C(=O)c2c[nH]cc2-c2ccccc2)cc1,-10,-5,2.3%,0.9,-19,-1.3
CC(c1ccccc1C(=O)O)c1cc(F)cc2ccccc12 (stereo unspecified),7,-1,6.5%,-0.8,-2,3.8
Brc1cccc(OCCCN2CCCCCC2)c1,2,-23,2.6%,-0.4,-6,0.8
Cc1ccc(C)c(N2CCN(C(=O)CCC(=O)Nc3nnc(C(F)(F)F)s3)CC2)c1,6,-13,4.7%,0.9,-1,-6.1
O=C(NCCNc1ccc([N+](=O)[O-])cc1C(F)(F)F)c1ccccc1F,-11,-6,-0.7%,1.0,-9,-0.8
CCCCN(C)S(=O)(=O)c1ccc(C(=O)Nc2nnc(CSC)o2)cc1,-10,2,1.1%,-0.5,-11,1.1
COc1cc(C2c3c([nH]c(=O)[nH]c3=O)Nc3ccc4ccccc4c32)cc(OC)c1OC (stereo unspecified),-13,2,11%,1.0,-10,-5.1
Cn1cc(/C=C(\C(=O)O)C(C(=O)O)=C2CCCCC2)c2ccccc21,8,-5,-1.1%,1.1,0,3.6
Cc1ccccc1OCCC(=O)OCC(=O)Nc1ccc(C(N)=O)cc1,-9,-3,-2.0%,0.9,-2,2.2
COC(=O)c1sccc1-n1cccc1C(=O)NCc1ccccc1,8,11,-1.2%,-1.0,-5,-1.2
c1ccc2c(c1)oc1c(Nc3ccc(CN4CCOCC4)cc3)ncnc12,-12,-27,-1.5%,-0.4,-10,4.6
CCOc1c2ccc(C(=O)NCC34CC5CC(CC(C5)C3)C4)cc2nn1CC,-15,-9,0.2%,-0.1,-16,-2.7
COc1ccc(CN2CCC[C@]3(N[C@H](c4ccccc4)[C@@H]4C(=O)N(C)C(=O)[C@@H]43)C2=O)cc1,0,5,1.0%,-0.3,9,-12
COc1ccc(CNCCCSc2ncccn2)cc1OC,·,-52,-0.3%,-0.7,-6,-4.2
CC(=O)N1CCN(C(=O)CCc2nc3ccccc3c(=O)[nH]2)CC1,3,-9,?,0.0,-1,-2.7
O=[N+]([O-])c1ccc(Cl)c2cccnc12,-2,2,-0.4%,0.4,-11,3.9
O=C(Nc1cccc(Br)c1)c1ccn[nH]1,-2,-13,·,-0.2,2,-1.7
CSCCC(NC(=O)COc1ccccc1)C(=O)N(C)Cc1ccc(F)cc1 (stereo unspecified),·,-3,-0.8%,-1.0,-5,-3.1
C/C(CC(=O)Nc1ccc(Cl)cc1)=N\NC(=O)C(=O)NCCO,-16,-6,0.6%,-0.3,-18,-5.8
C=CCN(c1ccccc1OC)S(=O)(=O)c1cccc(C(=O)NCC(c2ccc(OC)cc2)N2CCCC2)c1 (stereo unspecified),-6,-29,3.7%,0.1,-10,-1.2

Next part.
SMILES,CtBP-E1A inh,D2 potentiator,PINK1 expr mod,TRPML1 ag,Six1-Eya2 inh,D2 agonist
Cc1ccc(CN2C(=O)CSC2c2ccccc2F)cc1 (stereo unspecified),-3,-9,2.8%,·,-6,-5.4
O=C(CSc1nc(-c2ccccc2)cc(=O)[nH]1)N1CCc2ccccc21,-2,-5,0.2%,-1.7,3,-1.1
COc1ccc(CCn2ccc(O)c(Cc3ccc(Cl)cc3)c2=O)cc1OC,4,-4,0.6%,-0.4,-6,1.1
Cc1occc1C(=O)Nc1nnc(-c2cccs2)s1,4,7,3.4%,-0.6,3,0.5
O=C(CCn1c(=S)[nH]c2ccccc2c1=O)NCCc1ccccc1,-4,-3,-1.3%,-0.5,3,-1.0
CC(=O)N1Cc2cc(N)ccc2Oc2ccccc21,5,-6,-0.4%,-0.5,1,-0.6
Cc1cc(NC(=O)c2ccccc2Cl)n(C(C)(C)C)n1,-6,0,0.7%,-0.2,9,-2.3
C=CCNC(=O)c1cnn(-c2ccccc2)c1-c1ccccc1,-1,-3,2.2%,-0.6,1,2.9
COc1ccc(C(=O)NNC(=S)NC(=O)c2ccc(Cl)cc2)cc1,3,-14,0.8%,20,1,2.4
CC1CCN(C(=S)NC(=O)c2ccccc2)CC1,5,-7,-1.4%,0.0,-5,-1.0
COc1cc(C)c(C(C)C)cc1S(=O)(=O)n1cnc(C)c1,1,-2,8.5%,0.3,8,-3.9
C[C@@H](NC(=O)[C@@H]1Cc2ccccc2CN1)C(=O)Nc1ccc2c(c1)OCO2,3,-8,-0.9%,·,2,1.1

Assay outcomes as filed in PubChem BioAssay.
